High-throughput results as filed in PubChem BioAssay.
Measles inh: inhibitors of measles virus growth in cells, primary screen, measles RdRp inhibitor project, cell-based, single point, HTS. infected Vero cells, GFP fluorescence, 64 h; hits give low values. z-score (test concentration not listed). 33,000 tested, 0.1% active. AID 745, 2007;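 active = z-score under -3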;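 also: score is relative to mean and SD of the compound wells of a plate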
Starred values were filed as active, the others as inactive. Some of the compounds tested (hit frequency here may not be typical).

structure | Measles inh
O=C1OC(Nc2nc(-c3cccc(Br)c3)cs2)c2ccccc21 (configuration not stated) | -0.17
CCN(CC)CCCn1c(=S)[nH]c2cc(C(=O)OC)ccc2c1=O | -0.92
O=C(c1cc2nc(-c3cccs3)cc(C(F)(F)F)n2n1)N1CCN(c2ccc(F)cc2)CC1 | 0.14
CC1CCc2cc(F)ccc2N1C(=O)Cn1cc(C(=O)C(F)(F)F)c2ccccc21 (configuration not stated) | 1.6
CCC(C)NC(=O)C(NS(=O)(=O)c1cccs1)C(C)C (configuration not stated) | 2.2
Cc1ccc(C(CCNCc2ccccc2)c2ccco2)cc1 (configuration not stated) | 0.01
COc1ccc(C2C=C(Nc3ccc(Cl)cc3)C(=O)N2c2ccc(Cl)cc2)cc1OC (configuration not stated) | 0.18
CCn1c(-c2csc3c2CCC(C)C3)n[nH]c1=S (configuration not stated) | -0.78
CCc1ccccc1NC(=O)c1ccc(NCc2ccc(C)cc2)c([N+](=O)[O-])c1 | 0.34
CCOC(=O)C(CC)Sc1nc2c(c(=O)n1C)SC(C)C2 (configuration not stated) | -0.65
N#Cc1c(N=Cc2cc([N+](=O)[O-])ccc2Cl)sc2c1CCCC2 | 1.6
O=C(CC1NC(=O)NC1=O)NC1(C(=O)NC2CCCCC2)CCCCC1 (configuration not stated) | 1.8
CC1CCC(N2CC(=O)N(C3CCCC3)C(c3ccc(Cl)cc3)C2=O)CC1 (configuration not stated) | 1.4
O=[N+]([O-])c1ccc(-c2nc(Nc3ccc(N4CCOCC4)cc3)c3ccccc3n2)cc1 | -0.83
CC1(C)Cc2c(sc3[nH]c(=S)n(-c4cccc(Br)c4)c(=O)c23)CO1 | 0.27
COC(=O)C1=CN(C2CCCC2)C=C(C(=O)OC)C1c1ccccc1C(F)(F)F | 1.3

Of the compounds above, these have an NH in an aromatic ring.
structure | Measles inh
CCN(CC)CCCn1c(=S)[nH]c2cc(C(=O)OC)ccc2c1=O | -0.92
CCn1c(-c2csc3c2CCC(C)C3)n[nH]c1=S (configuration not stated) | -0.78
CC1(C)Cc2c(sc3[nH]c(=S)n(-c4cccc(Br)c4)c(=O)c23)CO1 | 0.27

Remaining list, next part
structure | Measles inh
O=S(=O)(c1ccc(-c2csc(-c3cccnc3)n2)cc1)N1CCCCC1 | 0.13
COc1ccc(C2C(C(=O)OCCOc3ccccc3)=C(C)NC3=C2C(=O)CC(C)(C)C3)cc1O (configuration not stated) | 0.36
Cn1c(=O)c2nc(-c3ccc(C(C)(C)C)cc3)oc2c2ccccc21 | -0.24
CCCCC(=O)Nc1ccc(N2CCOCC2)c2nonc12 | -0.5
CC(C)=C1CCC2(C)OC(=O)C(Cc3ccccn3)C12C (configuration not stated) | 1.2
O=C1C2CCCCC2C(=O)N1c1ccc(NCc2ccccc2Cl)c([N+](=O)[O-])c1 (configuration not stated) | -0.41
CCCCOc1ccc(NC(=O)c2ccc([N+](=O)[O-])cc2Cl)cc1 | -0.07
Cc1ccc(F)cc1NC(=O)C(Cc1ccc([N+](=O)[O-])cc1)N1C(=O)c2ccccc2C1=O (configuration not stated) | -0.09
Cc1cc(=O)[nH]c2ccc(O)cc12 | -0.55
COCCCNC(=O)Cn1ncc2c(=O)oc3ccccc3c21 | -0.19
O=c1oc2ccccc2cc1-c1nnc(Nc2ccc(Br)cc2)s1 | -0.12
CCCCN1C(=O)c2c(Oc3ccc(Cl)cc3)cc([N+](=O)[O-])cc2Oc2ccccc21 | 0.76
COc1cc(C2C(C(=O)OC3CCCC3)=C(C)NC3=C2C(=O)CCC3)cc(OC)c1O (configuration not stated) | 0.5
COc1ccc(CCN2C(=O)CC(N3CCN(c4ccc([N+](=O)[O-])cc4)CC3)C2=O)cc1OC (configuration not stated) | 0.81
CCC(C)n1c(SCC(=O)Nc2nccs2)nc2ccsc2c1=O (configuration not stated) | 0.29
CCN1CCN(S(=O)(=O)c2ccc3c(c2)c(=O)n(C)c(=O)n3C)CC1 | 1.3
CCOC(=O)CN1C(=O)C(=O)/C(=C(/O)c2ccc(Cl)cc2)C1c1ccc(Br)cc1 (configuration not stated) | -0.27
Cc1ccc(Sc2c(C)nn(C(C)(C)C)c2OC(=O)c2ccccc2[N+](=O)[O-])cc1 | -0.89
COc1cccc(C(=O)Nc2cc(-c3nc4ccc(C)cc4o3)ccc2Cl)c1 | -2
COc1ccc(CNC(=O)CN2CCN(Cc3cccc(C)c3)C2=O)cc1 | -0.47
COC(=O)C1=CNC=C(C(=O)OC)C1c1ccc(C)cc1 | -0.55
CN(Cc1ccccc1)C(=O)CSc1nc2ccc(N3CCOCC3)cc2c(=O)n1Cc1ccccc1 | 0.6
Cc1cc(Cl)ccc1OCCCC(=O)Nc1cccc2ccccc12 | -0.27
CCN(CC)CCN(C)c1ccc(N2C(=O)C3CC=CCC3C2=O)cc1[N+](=O)[O-] (configuration not stated) | -1.1

Among those listed so far, four have fluorine.
structure | Measles inh
O=C(c1cc2nc(-c3cccs3)cc(C(F)(F)F)n2n1)N1CCN(c2ccc(F)cc2)CC1 | 0.14
CC1CCc2cc(F)ccc2N1C(=O)Cn1cc(C(=O)C(F)(F)F)c2ccccc21 (configuration not stated) | 1.6
COC(=O)C1=CN(C2CCCC2)C=C(C(=O)OC)C1c1ccccc1C(F)(F)F | 1.3
Cc1ccc(F)cc1NC(=O)C(Cc1ccc([N+](=O)[O-])cc1)N1C(=O)c2ccccc2C1=O (configuration not stated) | -0.09

(cont.)
structure | Measles inh
COc1ccc(-c2coc3c2c(C)cc2oc(=O)c4c(c23)CCC4)cc1F | -0.13
CC(C)CCNC(=O)c1ccc2c(c1)N(Cc1cccc(F)c1)C(=O)c1ccccc1S2 | 1.1
COc1ccc(C=C2SC(=O)N(CCCC(=O)Nc3cccc(O)c3)C2=S)cc1 | -1.1
CCOC(=O)c1cc2c(=O)n3ccccc3nc2n(CC2CCCO2)c1=NC(=O)c1cccc(OC)c1OC (configuration not stated) | -0.97
O=[N+]([O-])c1ccc(N2CCN(S(=O)(=O)c3ccccc3)CC2)c2ncccc12 | -0.6
CCCCCn1c(SC(C)C(=O)OC)nc2c1c(=O)[nH]c(=O)n2C (configuration not stated) | -0.19
COc1ccc(OC)c(CNC(=O)c2cc(=O)[nH]c3ccccc23)c1 | 3.7
COC(=O)C1=C(C)N(C)C(C)=C(C(=O)OC)C1c1cc(Br)ccc1OC | 0.2
COc1ccc(C2C(C(=O)N(C)Cc3ccccc3)c3ccccc3C(=O)N2c2ccc(OC)cc2)cc1 (configuration not stated) | -0.79
CN(C)c1ccc(C2C3=C(Nc4ncnn42)c2ccccc2OC3c2ccc(Br)cc2)cc1 (configuration not stated) | -0.44
O=C(Nc1nc(-c2cccs2)c(C(=O)C(F)(F)F)s1)c1ccc(F)cc1 | -1.5
CC1CCCCN1CCNC(=O)C1CCN(S(=O)(=O)N2CCCCC2)CC1 (configuration not stated) | 0.14
O=C(NCCN1CCOCC1)c1nn2c(C(F)(F)F)cc(-c3ccccc3)nc2c1Cl | 0.07
COc1ccc(-c2ccc(CCC(=O)O)n2-c2cc(OC)ccc2OC)cc1 | 0.12
CCOC(=O)C1CCN(c2nc(-c3ccc(OC)c(OC)c3)nc3ccccc23)CC1 | -0.43
Cc1ccc(-c2nnc(Nc3ccc(S(N)(=O)=O)cc3)c3ccccc23)cc1S(N)(=O)=O | -0.35
Cc1ccc(C)c(NC(=O)CCCC(=O)Nc2cc(C)ccc2C)c1 | 0.58
O=C1CCCc2oc3c(Br)cc(NS(=O)(=O)c4ccc(Br)cc4)cc3c21 | -0.56
COc1ccc(Cl)cc1C(=O)Nc1ccc(-c2nc3ncccc3o2)cc1 | 0.98
COc1cc2[nH]c(=S)n(Cc3ccc4c(c3)OCO4)c(=O)c2cc1OC | 0.17
O=C(Nc1ccc(-c2nc3ncccc3o2)cc1)c1ccc(-c2cccc([N+](=O)[O-])c2)o1 | 1.4
COc1cc(C(=S)N2CCCCC2)cc(OC)c1OC(=O)c1cccc2ccccc12 | -0.06
O=c1c2cccc3c2c(nn1CCN1CCCCC1)-c1ccccc1-3 | -2.1
O=C(O)c1ccc(-n2c(C=Cc3cccc([N+](=O)[O-])c3)nc3ccccc3c2=O)cc1 | 0.27

Other structures follow:
mol | Measles inh
CCSc1nnc2c(n1)OC(c1ccc(C(=O)O)cc1)N(C(=O)CC)c1ccccc1-2 (configuration not stated) | -1
CCCCN(C(=O)NC(=O)NC(C)(C)C)S(C)(=O)=O | 0.19
O=C(Cn1c(=S)[nH]c2ncccc2c1=O)NC1CCCCC1 | 0.72
COc1ccccc1NC(=O)C1Cc2ccccc2CN1S(=O)(=O)c1ccc(F)cc1 (configuration not stated) | -0.67
COc1ccc(C2C(=O)N(C3CCCCCC3)CC(=O)N2CCC2=CCCCC2)cc1 (configuration not stated) | -0.91
Cc1ccc(NC(=O)c2c(NC(=O)Cc3ccccc3)sc3c2CCC3)cc1 | -0.89
COc1cccc(CNC(=O)C2c3ccccc3C(=O)N(C)C2c2cn(C)c3ccccc23)c1 (configuration not stated) | -0.09
O=C(NCCCN1CCCC1=O)c1ccc2c(=O)n(-c3ccccc3)c(=S)[nH]c2c1 | 0.08
O=C(CCCN1C(=O)c2cccnc2C1=O)NC(c1ccccc1)c1ccccc1 | -0.03
Cc1ccc(C(=O)CC2(O)C(=O)N(Cc3ccccc3)c3ccccc32)cc1 (configuration not stated) | -0.1
CCOc1ccc(-c2ncnn2-c2ccc(C)c(Cl)c2)cc1 | -0.01
CC(C)(C)c1ccccc1OCC(=O)NCc1ccco1 | 0.32
NC(=O)c1ccc(NC(=O)CSc2nc3ccccc3[nH]2)cc1 | 0.79
COc1ccc(OCC2c3cc(OC)c(OC)cc3CCN2C(=O)C(C)C)cc1 (configuration not stated) | -0.32
O=C(CN1CCN(Cc2ccccc2F)CC1)Nc1cccc(C(F)(F)F)c1 | -0.57
CCOC(=O)C1CCN(C(=O)C2CCN(S(=O)(=O)c3ccc(OC)c(OC)c3)CC2)CC1 | -0.18
Cc1cc(NCCO)n2c(nc3ccccc32)c1C#N | 0.64
CC(C)OC(=O)C1CC(C)(O)C(=O)C(C(=O)OC(C)C)C1c1ccc(N(C)C)cc1 (configuration not stated) | -0.95
O=c1[nH]c2ccc(S(=O)(=O)Nc3cccnc3)cc2s1 | 0.46
Cn1c(=O)oc2cc(S(=O)(=O)NC3CCCc4ccccc43)ccc21 (configuration not stated) | -0.66
COc1cc(Br)c(C=Nc2c(C)n(C)n(-c3ccccc3)c2=O)cc1OC | 0.17
O=C1CCCc2c1cc(C(=O)Nc1ccccc1Cl)c(=O)n2-c1ccccc1 | -0.42
CC(C)c1nn2c(=O)cc(O)nc2s1 | 0.07
Cc1ccccc1N=C1NC(=O)CS1 | -0.63
CCOC(=O)c1c(-c2ccc(C)cc2)csc1NC(=O)c1ccc(C)cc1 | -0.86
COc1cc2c(cc1OC)C(C(=O)NCCCN1CCOCC1)C1c3ccccc3CCN1C2=O (configuration not stated) | -0.05
Cc1ccc(-c2nn(CC(=O)NCc3ccccn3)c(=O)c3ccccc23)cc1S(=O)(=O)N(C)C | 1.7
O=c1c2c([nH]c3ccccc13)CCCCCC2 | -0.92
COc1ccc(C2CC(c3ccc(C)cc3)Nc3nnnn32)cc1 (configuration not stated) | -0.28
Cc1ccc(S(=O)(=O)Nc2ccc3c(c2)ncn3C2CCCCC2)cc1 | 0.94
COCCn1c(=N)c(C(=O)NC2CCCCC2)cc2c(=O)n3ccccc3nc21 | -0.64
Cc1c(N)cccc1-c1nc2ncccc2o1 | 0.48
CCC(C)NC(=O)c1c(Cl)nc(C)c(Cl)c1C (configuration not stated) | -0.87
CCN(CC)c1ccc(NS(=O)(=O)c2cc(Br)cc3c2N(C(C)=O)C(C)C3)c(C)c1 (configuration not stated) | -0.34
Cc1cc(Cl)ccc1NC(=O)c1c(-c2ccccc2Cl)noc1C | -0.44
Cc1cccc(NC(=O)c2ccc(S(=O)(=O)N3CCCCC3)cc2)c1 | -0.51
O=C(O)c1ccc(NCCCN2CCOCC2)c([N+](=O)[O-])c1 | 0.23
CCCS(=O)(=O)N1CCN(C(=O)c2ccc(F)cc2)CC1 | 0.43
N=C(N)SCCN1CCCC1=O | 0.74
CCOc1ccc2ccccc2c1C1Nc2ccccc2-c2nnc(SCC)nc2O1 (configuration not stated) | 1.1
Cc1cc(C)cc(OCC(=O)Nc2nccs2)c1 | 0.57
O=C(Nc1cccnc1)c1cnc2ccccc2n1 | 0.74
O=C(NCCc1ccccc1)c1nc2nc(-c3cccs3)cc(C(F)(F)F)n2n1 | 0.29
CC(=O)c1ccc(N=Cc2ccc(OCc3ccc(F)cc3)cc2)cc1 | 0.09
CCc1ccc(N2C(=O)c3ccccc3NC2c2ccc(OC)cc2)cc1 (configuration not stated) | 0.31
Cc1cccc(NC(=O)c2sc3ncnc(N4CCOCC4)c3c2C)n1 | 0.02
CC1=C(C(=O)OC2CCCCC2)C(c2cccc(O)c2)NC(=O)N1 (configuration not stated) | -0.35
CCCNC(=O)c1noc2c1CCCC2 | -0.64
O=C(NCCc1ccccc1Cl)C1CC(=O)N(C2CCCCC2)C1 (configuration not stated) | 0.67
Cc1ccc(Nc2nc(-c3cc4ccccc4oc3=O)cs2)cc1 | -1.5

Other entries:
mol | Measles inh
COc1ccccc1C1C(C(=O)OC(C)C)=C(C)NC2=C1C(=O)CCC2 (configuration not stated) | -0.13
CCOc1ccc(S(=O)(=O)N2CCN(c3ccc(OC)cc3)CC2)c2cccnc12 | -0.48
COC(=O)C(NC(C)=O)(Nc1ncc(Cl)cc1Cl)C(F)(F)F (configuration not stated) | 0.29
O=c1c2cc(Br)ccc2nc2n1CCCCC2 | 0.17
CCOc1ccc(NC(=O)c2sc3ncnc(N4CCN(c5ccccc5OC)CC4)c3c2C)cc1 | -0.13
CCOc1ccc(NC(=O)C2CC(=O)N(CC)C(=Nc3ccccc3)S2)cc1 (configuration not stated) | -0.83
c1ccc(CCSc2nc3ccccc3[nH]2)cc1 | 0.73

Structures shown so far containing a COOH group, in the order listed:
mol | Measles inh
COc1ccc(-c2ccc(CCC(=O)O)n2-c2cc(OC)ccc2OC)cc1 | 0.12
O=C(O)c1ccc(-n2c(C=Cc3cccc([N+](=O)[O-])c3)nc3ccccc3c2=O)cc1 | 0.27
CCSc1nnc2c(n1)OC(c1ccc(C(=O)O)cc1)N(C(=O)CC)c1ccccc1-2 (configuration not stated) | -1
O=C(O)c1ccc(NCCCN2CCOCC2)c([N+](=O)[O-])c1 | 0.23
